Bioassay records deposited in PubChem by National Center for Advancing Translational Sciences (NCATS).
ClpP mod = qHTS Assay for Activators of ClpP; ATP-dependent Clp protease proteolytic subunit (Bacillus subtilis (strain 168)), P80244; purified B. subtilis ClpP, FRET peptide cleavage, 20 min; AID 651965, 2013; 340,000 tested, 1.9% active; Potency, µM (top dose mostly 57.5 µM), for inactives: top-dose activity change, negative = active; active = well fitted falling curve with a large enough effect; inconclusive = small, poorly fitted or top-dose-only effect; inactive = no such curve, though single readings can be large or run the other way; also: potency is read from the fitted curve at half-maximal effect; the source files actives as falling curves though it sought activators and does not explain the sign; nearly all actives have a fitted effect of over 65% in size; many hits overshoot -100%
Target sequence (P80244 whole entry, looked up): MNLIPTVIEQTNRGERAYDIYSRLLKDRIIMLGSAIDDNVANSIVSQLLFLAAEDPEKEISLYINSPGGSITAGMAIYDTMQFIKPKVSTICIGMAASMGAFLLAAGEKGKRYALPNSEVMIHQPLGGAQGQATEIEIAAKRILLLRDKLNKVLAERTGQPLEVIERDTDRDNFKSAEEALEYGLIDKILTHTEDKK
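FRET quenching reversal measured ClpP activation: 10 microg/mL B. subtilis ClpP at pH 8 with the FRET-FV decapeptide, read at 430 nm after 320 nm excitation. The 20-min minus 0-min signal was scaled between DMSO/no-enzyme wells and ADEP (5.8 microM final).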
gsp antag = antagonists of gsp mutant (McCune-Albright syndrome) | gsp-mutant cells, cAMP HTRF, 30 min; control for the full effect not named in the record | Potency, µM (series often up to 76.9 µM), for inactives: top-dose activity change, negative = inhibition, most hits filed as inhibitors | 340,000 tested, 0.4% active | AID 624288; active = falling curve of any shape with a large fitted effect; inconclusive = falling curve, mostly with a smaller effect; inactive = flat or rising curve; cell line not stated here;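 also: intracellular cAMP measured with PDE inhibitor Ro 20-1724 present during compound exposure; potency is read from the fitted curve at half-maximal effect; % is scaled to controls: 0 for no effect and ±100 for the full control effect; nearly all actives have a fitted effect of over 65% in size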
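G418-selected cells were plated in DMEM/10% FBS for 16-24 h at 37C, then treated with compounds plus the PDE inhibitor […] (300 uM solution added) for 30 min at 37C. Intracellular cAMP was measured by HTRF after 30 min lysis at room temperature.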
CtBP-E1A blk = blocks the CtBP interaction with E1A. AlphaScreen GST-E1A/His-CtBP binding, 1536-well; active compounds read low; control for the full effect not named in the record. activity change, % (no concentration beside the values). 340,000 tested, 0.49% active; in the data active means activity change below about -65%; inconclusive means about -30% to -65%; inactive means above about -30%; also: % is scaled to controls: 0 for no effect and ±100 for the full control effect
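GST-E1A and His-tagged CtBP (125 nM each as 5X stock) were preincubated with pin-transferred compound for 2 h at 37 °C in the dark, then glutathione donor and nickel acceptor beads were added for 1 h before AlphaScreen reading.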
Sfp inh = inhibitors of Bacillus subtilis Sfp phosphopantetheinyl transferase; 310,000 tested, 3.5% active; AID 1490; Q9F4F7; Potency, µM, without a hit: max response, negative = inhibition, most hits filed as inhibitors; Biochemical Sfp PPTase activity, qHTS; active = well fitted inhibition curve with a large enough effect; inconclusive = small, poorly fitted or top-dose-only effect, or another doubt; inactive = no such curve, though single readings can be large or run the other way;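 also: the enzyme is Sfp with the accession as filed and its product quenches rhodamine fluorescence; potency is read from the fitted curve at half-maximal effect; 0% = enzyme reaction without inhibitor and -100% = no enzyme wells; top concentration of the series not given in the record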
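Compounds were incubated with enzyme (final 15 nM) for 15 min at room temperature before substrate addition started the reaction. Fluorescence at 525 nm excitation, 598 nm emission was recorded immediately and after 30 minutes.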
TRPV1 potentiator = human TRPV1 potentiation. Q8NER1. TRPV1-expressing cells, Fluo-8 calcium influx, capsaicin EC20 potentiation; host cell line not named in the record; control for the full effect not named in the record. potentiation, % at 8.33 µM. 320,000 tested, 0.02% active. AID 540277; active means potentiation above 80%; inconclusive means 30% to 80%; inactive means below 30%; also: 0% is about no effect
Target sequence (Q8NER1 whole entry, looked up): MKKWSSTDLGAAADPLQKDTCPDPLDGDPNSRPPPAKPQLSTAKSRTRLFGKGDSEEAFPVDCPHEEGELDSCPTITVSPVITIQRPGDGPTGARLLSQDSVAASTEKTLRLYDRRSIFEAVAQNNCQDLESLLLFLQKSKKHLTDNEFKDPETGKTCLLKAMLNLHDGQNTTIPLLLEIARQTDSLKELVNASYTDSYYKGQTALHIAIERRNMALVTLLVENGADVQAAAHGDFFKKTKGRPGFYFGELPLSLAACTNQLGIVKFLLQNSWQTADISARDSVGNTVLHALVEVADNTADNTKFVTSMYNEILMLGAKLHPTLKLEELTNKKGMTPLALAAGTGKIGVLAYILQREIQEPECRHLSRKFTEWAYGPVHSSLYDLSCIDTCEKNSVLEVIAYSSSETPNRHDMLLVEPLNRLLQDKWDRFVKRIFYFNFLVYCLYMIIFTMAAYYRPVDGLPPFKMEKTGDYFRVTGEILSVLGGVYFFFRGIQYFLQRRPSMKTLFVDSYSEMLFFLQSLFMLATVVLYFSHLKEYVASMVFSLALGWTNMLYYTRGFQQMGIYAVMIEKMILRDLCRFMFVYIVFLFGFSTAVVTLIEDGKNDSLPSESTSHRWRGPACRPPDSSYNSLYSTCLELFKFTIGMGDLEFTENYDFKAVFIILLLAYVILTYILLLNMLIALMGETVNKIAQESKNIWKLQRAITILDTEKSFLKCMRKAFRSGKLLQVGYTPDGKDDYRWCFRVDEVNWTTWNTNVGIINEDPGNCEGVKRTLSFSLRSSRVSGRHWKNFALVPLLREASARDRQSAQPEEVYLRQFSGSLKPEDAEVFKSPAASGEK
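Cells expressing TRPV1 were dye-loaded with Fluo-8 and read kinetically: 10 s baseline, 3 min after compound (agonist portion), then 2 min after EC20 capsaicin (allosteric enhancer portion). Calcium-bound dye fluorescence at 480/520 nm.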
gsp ag = agonists of gsp mutant (McCune-Albright syndrome); gsp mutant cells, cAMP HTRF, 30 min; control for the full effect not named in the record; 340,000 tested, 0.13% active; Potency, µM (top dose mostly 76.9 µM), inactives show at the top dose activation (cAMP increase), most hits filed as activators; active = well fitted activation curve with a large enough effect; inconclusive = small, poorly fitted or top-dose-only effect, or another doubt; inactive = no such curve, though single readings can be large or run the other way; cell line not stated here;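 also: phosphodiesterase inhibitor Ro 20-1724 added with compounds to block cAMP breakdown; potency is read from the fitted curve at half-maximal effect; nearly all actives have a fitted effect of over 60% in size; about a fifth of the inactives were tested at one dose only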
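Cells stably selected in G418 were plated at 2000/well, grown 16-24 hr, then given compounds in DMSO with the PDE inhibitor […] (300 uM solution added) for 30 min at 37C; cAMP was read by HTRF.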
Menin-MLL FL inh = displaces fluorescein MLL peptide from human menin; Fluorescence polarization, fluorescein-MLL peptide displacement from menin; FP activity change, % at 61.4 µM; 290,000 tested, under 10 active; AID 1766; inconclusive = falling polarisation curve, or a change in total fluorescence; inactive = total fluorescence flat and polarisation flat or rising; no compound was filed as active; the % refers to the polarisation; negative = inhibition;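 also: % of control where 0% means no effect; inhibitors lower the polarisation; unlabelled MLL peptide was the positive control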
* = called active by the depositor; ? = inconclusive; nt = no result given; & = joins results of further samples; [ ] = remark or other dose.

SMILES	ClpP mod	gsp antag	CtBP-E1A blk	Sfp inh	TRPV1 potentiator	gsp ag	Menin-MLL FL inh
CCc1c(C(=O)N2CCCN(C)CC2)csc1C	-2.6%	12%	-4	15%	8	9%	1.9
COc1ccc(COCC(O)CN(Cc2ccccc2)C(C)C)cc1OC (configuration not stated)	3.2%	6%	nt	4%	-11	6%	-1.8
CC(=O)N/C(=C\c1ccccc1)C(=O)OCC(=O)NC1CCCC1	1.5%	3%	27	25%	-7	23%	3.4
O=C(CSc1nnc(-c2ccco2)o1)c1ccc(O)cc1O	nt	-17%	2	3%	2	19%	6.6
Cc1ccc(S(=O)(=O)CCC(=O)OCC(=O)Nc2ccc(N3CCOCC3)cc2)cc1	-0.8%	-11%	-2	nt	2	-15%	nt
COc1ccccc1C(=O)NCCC(=O)NC(C)CCc1ccccc1 (configuration not stated)	4.1%	-16%	4	nt	19	0%	nt
COc1ccc(-c2cnnc(N/N=C/c3ccc(O)c(OC)c3)n2)cc1	-1.5%	-6%	-5	-14%	30	-38%[inhibitor]	1.7
CN(C)C(=O)c1ccc2c(c1)n(C)c(=O)n2C	-0.6%	16%	9	-3%	-1	-11%	5.3
COc1ccc(NS(=O)(=O)c2cccc(C(=O)N3CCC3)c2)cc1	-6.0%	-3%	9	nt	-3	?	nt
Cc1cccc(C(=O)n2cnnc2N)c1	nt	0%	-24	7%	?	21%	1.0
CC1CCCN(c2ccc3nncn3n2)C1 (configuration not stated)	0.8%	11%	0	5%	9	?	1.7
CN1N=C2c3ccccc3CCC2C1c1ccc(Cl)cc1 (configuration not stated)	nt	2%	2	15%	0	-8%[15.4 µM]	3.4
CCCCCC(=O)N1C[C@@H](n2cc(-c3ccc(F)cc3)nn2)[C@H](O)C[C@@H]1c1ccc(Cl)cc1	1.4%	nt	6	nt	nt	-87%	nt
O=S(=O)(Nc1nc2ccccc2nc1NCC1CCCO1)c1cccs1 (configuration not stated)	-20%	-9%	1	15%	8	0%	-1.0
CCC(C)(C)C1CCc2[nH]nc(C(=O)NC3CCCC3)c2C1 (configuration not stated)	2.6%	-21%	nt	nt	-94	?	nt
CCN(CCn1cccn1)C(=O)CCc1nnc(CCCc2ccccc2)o1	nt	1%	5	27%	-3	?	1.3
Nc1nc(N2CCN(c3cccc(Cl)c3)CC2)n[nH]1	-7.6%	7%	-2	15%	?	-13%[15.4 µM]	0.4
Nc1nc(NC(=O)/C=C/c2ccccc2)nn1-c1ccccc1	-1.2%	8%	-9	12%	5	1%	1.7
COc1cc(C(C)=O)ccc1O	-4.2%	-5%	-17	nt	1	nt	nt
COC(=O)c1[nH]c2cccc(OC)c2c1NC(=O)CCN1CC(C)CC(C)C1 (configuration not stated)	-19%	-6%	-1	-1%	1	?	3.5
NS(=O)(=O)c1ccc(-n2nc(C(=O)O)cc2-c2ccc(Cl)cc2)cc1	nt	-3%	3	36%[activator]	-16	-6%	1.1
COc1ccccc1N1CCN(C(=O)c2cccc(N3C(=O)NC4CC3(C)Oc3ccccc34)c2)CC1 (configuration not stated)	-0.7%	2%	-1	3%	1	-2%	3.3
Cc1c(C(=O)N2CCCCC2)c(S(=O)(=O)N(C)Cc2ccccc2)c(C)n1C	0.3%	4%	0	12%	-4	-5%	-0.8
O=C(C1CCN(S(=O)(=O)c2cccs2)CC1)N1CCc2ccccc2C1	5.9%	-23%	1	-18%	-12	?	2.9
CC1=C(C(=O)Nc2ccc(C(=O)NC(C)c3ccccc3)cc2)SCCO1 (configuration not stated)	0.3%	-6%	2	12%	-14	-18%	-0.5
O=C(OCCOCCN=C1NS(=O)(=O)c2ccccc21)c1ccccc1Br	nt	0%	-2	3%	-14	-1%	-14
COc1ccc(CNC(=O)C(C)N2CCN(c3ccc(C(C)=O)cc3)CC2)cc1 (configuration not stated)	nt	-21%	3	-6%	-3	-17%	-6.6
CCN(C(=O)CSc1nnc(-c2ccco2)n1CC)c1c(N)n(Cc2ccccc2)c(=O)[nH]c1=O	-1.4%	17%	-16	nt	-3	-32%[inhibitor]	nt
COc1cc(C(=O)Nc2nc3ccccc3[nH]2)cc(OC)c1OC	-1.5%	14%	-7	21%	0	14%	1.0
CSc1nc(NC(C)C)nc(N2CCOCC2)n1	-2.7%	6%	-5	21%	19	9%	-0.5
COc1ccccc1N(CC(=O)Nc1ccc(S(=O)(=O)N2CCOCC2)cc1)S(C)(=O)=O	nt	-2%	0	14%	3	9%[15.4 µM]	nt
O=C(Cn1nnc2ccccc2c1=O)N1CCCc2ccccc21	-1.3%	-1%	6	11%	-2	32%	-6.3
CC(=O)Nc1ccc(Nc2ncnc3c2cnn3-c2cccc(C)c2)cc1	89%	?	0	-1%	11	4%	-0.3
COC(=O)[C@@]1(Cc2ccc(F)cc2)[C@H]2c3cc(C(=O)N4CCCC4)n(CCc4ccc(O)c(O)c4)c3C[C@H]2CN1C(=O)c1ccccc1	nt	nt	nt	-22%&-22%	12	nt	2.7&-1.5
COc1ccc(OC)c(C(=O)COC(=O)c2c(OC)cccc2OC)c1	-1.4%	-16%	1	14%	-5	-40%[inhibitor]	3.3
COc1cccc(OCC(O)CN(CCO)Cc2ccccc2)c1 (configuration not stated)	-0.9%	-1%	-2	1%	2	2%	1.5
O=C1OCCN1C(=O)[C@H]1[C@H](c2ccc(F)cc2)C(c2ccccc2)=NN1c1ccc(Br)cc1	4.6%	-9%	29	16%	nt	nt	0.2
COc1ccc(CNC(=O)c2ccc(Cn3nc(C)c([N+](=O)[O-])c3C)o2)cc1	nt	10%	0	-28%	6	4%	0.5
COc1ccc(CNc2ncnc3ccccc23)cc1	nt	-12%	-6	7%	7	-7%[15.4 µM]	0.8
COc1cccc(NS(=O)(=O)c2c(C(=O)N3CCCCCC3)c(C)n(C)c2C)c1	0.6%	10%	4	22%	7	-20%	nt
CC(C)(C)NC(=O)COC(=O)CCC(=O)c1ccc(F)cc1	nt	1%	3	21%	4	-6%[15.4 µM]	-3.7
C#CCOc1ccc(C2C(C#N)=C(N)Oc3cc(O)ccc32)cc1 (configuration not stated)	-25%	-21%	-4	-2%	30	-12%[15.4 µM]	?
COC(=O)Cc1ccc(NC(=S)N2CCN(c3cc(Cl)ccc3C)CC2)cc1	nt	-23%	14	20%	-8	3%[15.4 µM]	-1.5
Cc1ccc(Cn2cc(C(=O)NN)c(=O)c3ccc(F)cc32)cc1	-0.8%	-3%	-3	11%	4	-1%	-2.4
Cc1ccccc1C(=O)Nc1ccc2c(c1)nc(CCNC(=O)c1ccco1)n2C	-1.5%	-3%	1	1%	-7	12%	nt
Cc1nnc2ccc(-c3ccc(NC(=O)c4ccco4)cc3)nn12	4.5%	6%	-11	-3%	13	?	0.4
CC(C)c1csc(CN2CCC(CO)(Cc3ccccc3)CC2)n1	nt	13%	-1	3%	12	-28%	-0.8
Cc1oc(-c2ccc(Cl)cc2)cc1-c1nn2c(-c3ccco3)nnc2s1	nt	nt	nt	-24%	6	nt	6.3
COc1ccccc1/C=C/C1=NC(=C\N(C)C)/C(=O)O1	25µM*	-10%	-1	1%	-12	-23%	-0.9
CCCS(=O)(=O)N1CCN=C1SCc1cccc2ccccc12	1.4%	9%	nt	-9%	-24	?	5.1
COc1ccc(NC(=S)N2CCN(Cc3ccc(C)cc3)CC2)cc1	nt	nt	7	7%	7	-2%[15.4 µM]	-3.2
CC(C(=O)Nc1cccc(Br)c1)c1ccc([N+](=O)[O-])cc1 (configuration not stated)	-0.1%	-1%	4	?	12	?	-5.4
CCOC(=O)CNC(=O)CSc1ncnc2c1cnn2-c1ccc(OC)cc1	-6.1%	?	-6	3%	0	3%	-1.4
Cc1ccc(NC(=O)CCc2nnc3ccc(N4CCC(C)CC4)nn23)nc1	-3.4%	4%	-2	6%	-4	34%	nt
COc1ccc(NC(=O)C/C(C)=N/NC(=O)c2cnccn2)c(OC)c1	nt	-2%	-4	?	6	2%	-10
COc1ccc(-c2cc(N)n(CCC#N)n2)c(OC)c1	-8.5%	13%	4	4%	12	13%	-2.3
Cc1occc1C(=O)N(C)Cc1nc(-c2ccccc2)no1	nt	0%	-3	11%	4	-14%	0.6
COc1ccc(-c2nnc(SCC(=O)N3CCCCC3)o2)c(OC)c1	-2.4%	-15%	9	6%	-1	-13%	1.3
COc1ccc(-c2csc3ncnc(N4CCN(S(=O)(=O)c5ccc(C)c(C)c5)CC4)c23)cc1	nt	-11%	-4	nt	5	6%[15.4 µM]	nt
COCc1ccc(CN2CCC(C(=O)Nc3cccc(-c4cscn4)c3)CC2)o1	-2.7%	13%	-7	7%	1	-1%	nt
(more compounds)
SMILES	ClpP mod	gsp antag	CtBP-E1A blk	Sfp inh	TRPV1 potentiator	gsp ag	Menin-MLL FL inh
COC(=O)c1cn(C(=O)c2cc(Br)ccc2Cl)c2ccccc12	-0.6%	5%	4	-27%	9	17%	-1.9
N#Cc1ccc(-c2ccc(Cl)cc2)nc1SCC(=O)c1cccc(Cl)c1	0.7%	-7%	2	-7%	-8	?	?
Cc1nnsc1C(=O)NC1CCCCC1	0.5%	1%	17	27%	5	-28%	1.3
CC(=O)c1cc(-c2ccccc2)n(CCC(=O)NCc2cccs2)c1C	0.1%	-20%	-11	-3%	-26	-25%	9.0
CCOP(=O)(c1ccc(N(C)C)cc1)C(O)c1ccc(C)cc1 (configuration not stated)	nt	-16%	-3	20%	11	-13%[15.4 µM]	-0.3
O=C(COC(=O)/C=C/c1cccc([N+](=O)[O-])c1)NCc1ccc2c(c1)OCO2	-0.3%	1%	5	-1%	-8	-9%[15.4 µM]	-0.3
CN(Cc1ccc(F)cc1)C(=O)c1cccc(S(=O)(=O)N2CCN(c3ccccc3)CC2)c1	-3.7%	-17%	-2	nt	-2	-39%[inhibitor]	nt
Cc1cnnn1-c1ccc([N+](=O)[O-])cc1	nt	11%	-11	22%	10	8%	38[activator]
O=C(Cn1ncc2c(=O)oc3ccccc3c21)NCC1CCCO1 (configuration not stated)	-0.4%	9%	4	8%	3	7%	7.8
